# Rce1 inhib = blocks yeast Ras-converting enzyme; Q03530; yeast membranes, quenched prenylated peptide cleavage fluorescence; calls only; 0.27% of 290,000 active; AID 2563;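 active = fall in fluorescence gain of 50% or more versus controls, with final raw signal at or below 3038400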;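 note: plate controls were neutral control wells for no effect and wells lacking membranes for full effect; tested at 10 µM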
# Target sequence (Q03530 whole entry, looked up): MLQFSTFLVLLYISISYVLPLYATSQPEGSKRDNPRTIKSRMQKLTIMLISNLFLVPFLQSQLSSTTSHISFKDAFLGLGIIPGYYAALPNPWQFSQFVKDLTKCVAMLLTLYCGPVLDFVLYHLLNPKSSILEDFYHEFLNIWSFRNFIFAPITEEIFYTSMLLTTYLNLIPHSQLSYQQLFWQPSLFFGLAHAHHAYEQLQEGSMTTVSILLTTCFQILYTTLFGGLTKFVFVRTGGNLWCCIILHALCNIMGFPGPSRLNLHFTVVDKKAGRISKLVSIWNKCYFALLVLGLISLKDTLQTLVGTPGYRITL
# eIF4H FP inh = inhibitors of RNA binding by human eIF4H; inhibition, % at 35 µM; eIF4H fluorescence polarization binding assay; 0.94% of 290,000 active; Q15056;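 active = 50% or more with normal probe brightness, or confirmed in later tests; about a fifth of its hits are not listed in these tables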;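 note: calls also rest on retests at 20 µM and on dose response follow-up; 0% = protein and probe with vehicle and 100% = probe without protein; strong numbers were not always called active; many hits fall short of the cut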
# PABP FP inh = PABP-poly(A) binding inhibition. 1% of 290,000 active. PABP-poly(A) RNA binding, fluorescence polarization. P11940. AID 2014. inhibition, % at 35 µM;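 active = 50% or more with normal probe brightness, or confirmed in later tests; about a fifth of its hits are not listed in these tables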;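 note: calls also rest on retests at 20 µM and on dose response follow-up; controls were probe without protein and protein plus probe with vehicle; some compounds called inactive have numbers as strong as hits; many hits fall short of the cut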
# Target sequence (P11940 whole entry, looked up): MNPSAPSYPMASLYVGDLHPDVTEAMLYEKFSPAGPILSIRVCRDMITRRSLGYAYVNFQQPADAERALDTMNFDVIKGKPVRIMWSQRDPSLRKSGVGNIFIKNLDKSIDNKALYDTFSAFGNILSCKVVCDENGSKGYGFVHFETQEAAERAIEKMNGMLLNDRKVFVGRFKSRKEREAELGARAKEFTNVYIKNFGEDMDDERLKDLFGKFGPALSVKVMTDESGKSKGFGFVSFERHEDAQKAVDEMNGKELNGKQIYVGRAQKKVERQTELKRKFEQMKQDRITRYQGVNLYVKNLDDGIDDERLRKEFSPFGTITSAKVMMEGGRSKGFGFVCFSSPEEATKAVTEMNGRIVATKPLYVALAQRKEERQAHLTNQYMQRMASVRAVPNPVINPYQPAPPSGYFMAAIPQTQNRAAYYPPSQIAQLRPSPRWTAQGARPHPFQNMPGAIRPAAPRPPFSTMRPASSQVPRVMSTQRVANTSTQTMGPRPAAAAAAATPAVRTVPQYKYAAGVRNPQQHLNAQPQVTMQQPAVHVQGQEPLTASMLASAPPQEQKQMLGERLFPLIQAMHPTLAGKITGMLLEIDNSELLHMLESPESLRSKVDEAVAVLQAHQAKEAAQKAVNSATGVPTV
# UUG fidelity = yeast start codon fidelity modulation; AID 602363; 0.13% of 350,000 active; S. cerevisiae UUG-firefly luciferase reporter, luminescence/redox ratio; activity score, % at 18.7 µM;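 active = replicate mean at a twofold rise or more, about +100% in these data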;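 note: firefly luciferase made from a UUG start codon reports start codon fidelity; reporter light over untreated wells divided by growth signal over untreated wells; some hits fall short of that in this replicate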
# CSC inhib = cancer stem cell inhibition; 1.1% of 300,000 active; cancer stem cell-like cells viability, luminescence; inhibition, % at 7.5 µM;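 active = mean at 75% or more and at least half the replicates too; tested in HMLE shEcad cells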;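 note: 0% = median of negative and 100% = median of positive control wells; the first replicate is given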
# MT1-MMP act inh = MT1-MMP (human) activation inhibition; P50281; HT1080 RFP-PRO-GFP cells, GFP/RFP ratio fluorescence, overnight; percent of plate control window, DMSO zero; GFP/RFP ratio change, % at 20 µM; 0.061% of 360,000 active; AID 651647;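 active = GFP/RFP ratio change of at least 30% with cell ATP level not reduced by more than half and red fluorescence within 50% of control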; note: strong numbers were not always called active
#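 Assay system – RFP-PRO-GFP reporter HT1080 cells · Compound dosing – single dose of 20 µM compound, 1% DMSO final · Incubation – overnight compound exposure at 37 °C · Measure – GFP/RFP fluorescence ratio · Benchmarks – DMSO wells and RFP-L50D-GFP cells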
# HIV Env fusion = blocks HIV Env-driven cell-cell fusion; inhibition, % at 12.3 µM; AID 651610; 1.1% of 360,000 active; HeLa-JRFL Env/CEM21 cell fusion, luciferase;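 active = mean replicate inhibition score of at least 50 and every replicate individually at or above 50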;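 note: 0% = plate neutral controls and 100% = maraviroc near 300 nM; one replicate is shown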
# MT1-MMP act inh RFP = also measured in MT1-MMP act inh; calls as there; RFP signal change, %; measured here: RFP expression control read;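 0 = vehicle wells; hits needed this value within 50% of zero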
# * = called active by the depositor; i = inactive; . = not tested or not shown.
SMILES,Rce1 inhib,eIF4H FP inh,PABP FP inh,UUG fidelity,CSC inhib,MT1-MMP act inh,MT1-MMP act inh RFP,HIV Env fusion
Cc1c(C(=O)N/N=C/c2cccnc2)sc(=S)n1C,i,-4,-7,.,-3,0,4,.
CCCN(CC(=O)Nc1ccc(C(N)=O)cc1)CC(=O)Nc1ccccc1C,i,1,8,.,.,-2,-3,1
CCS(=O)(=O)N1CCC(C(=O)NCc2ccc(OC)cc2OC)CC1,i,1,-9,.,-8,2,0,8
CCOC(=O)c1oc2ccc(S(=O)(=O)n3nc(-c4ccc(OC)cc4)cc3N)cc2c1C,i,1,9,4,51,-6,-26,16
CCOc1ccc(C(C(=O)NC2CCCC2)N(C(=O)c2snc(C(N)=O)c2N)c2cccc(O)c2)cc1 (stereo not given),i,7,19,-7,15,-12,-2,23
O=C(/C=C/Nc1ccc(OC(F)(F)F)cc1)C(F)(F)F,i,-6,0,-14,-10,3,5,.
CC(C)=CC(=O)OCC(=O)Nc1cc([N+](=O)[O-])ccc1F,i,-9,1,.,11,0,4,-7
O=C(COC(=O)c1cc(NS(=O)(=O)c2cccs2)ccc1O)Nc1ccc(F)c(F)c1F,.,5,-7,4,14,0,0,13
Clc1ccc(CSc2nnc(-c3ccc4c(c3)OCO4)o2)cc1,i,-4,6,-16,0,1,-2,.
CC(=O)Nc1ccc(C)c([N+](=O)[O-])c1,i,0,7,-13,7,-2,-2,-6
Cc1c2cnn(CC(=O)NCCCN3CCCCC3)c(=O)c2c(C)n1Cc1ccccc1,i,-7,-3,-8,-3,-1,0,2
Cc1ccc(SC(C)C(=O)Nc2ccc(S(=O)(=O)N3CCOCC3)cc2)cc1 (stereo not given),i,-9,-2,-9,-6,0,-5,-19
O=Cc1c(-c2ccccc2)cc2oc3ccccc3cc1-2,i,8,-5,1,45,-7,-4,.
CCOC(=O)c1ccc(NC(=O)c2ccccc2)cc1,i,-4,-11,-4,-7,3,-2,.
Cn1c(=O)c2c(nc(SCC(=O)c3ccccc3F)n2C)n(C)c1=O,i,-7,-3,.,5,.,.,.

# Individual results from the results shown.
# CCCN(CC(=O)Nc1ccc(C(N)=O)cc1)CC(=O)Nc1ccccc1C in HIV Env fusion: 1
# CCOC(=O)c1oc2ccc(S(=O)(=O)n3nc(-c4ccc(OC)cc4)cc3N)cc2c1C in HIV Env fusion: 16

# (continued)
SMILES,Rce1 inhib,eIF4H FP inh,PABP FP inh,UUG fidelity,CSC inhib,MT1-MMP act inh,MT1-MMP act inh RFP,HIV Env fusion
Cc1ccn2c(-c3n[nH]c(=S)n3C)c(C)nc2c1,i,-5,-11,-19,11,-1,0,13
CCc1c(O)cc(=O)n(-c2ccccc2)c1-c1ccccc1,i,21,-1,-2,13,-4,1,-12
COc1ccc(-c2nnc(SCC(=O)N3CCOCC3)o2)cc1,i,-1,-10,-19,-6,7,3,.
Cc1nn(-c2ccccc2)c2sc(C(=O)n3cccn3)cc12,i,1,4,-9,.,1,-2,-8
COc1ccc(-c2c(-c3ccsc3)oc3ccc(N4CCOCC4)cc23)cc1,i,.,.,-17,52,-4,-5,24
c1ccc(-c2ccnc3nc(-n4cccc4)nn23)cc1,i,3,10,.,-6,1,0,-17
Cc1nnc(SCC(=O)Nc2nc3ccccc3s2)n(N)c1=O,i,-1,-13,-7,-5,1,0,-19
CN(CC(=O)O)S(=O)(=O)c1cc(Cl)ccc1Cl,i,-4,1,-8,-8,2,2,.
CC(Oc1ccc(Br)cc1)C(=O)Nc1nc(-c2ccccn2)cs1 (stereo not given),i,10,17,-43,89*,4,-1,20
CCc1nc2c(OCc3ccc(C#N)cc3)cccn2c1N(C)C(=O)C(C)C,.,.,.,-14,.,2,1,27
COC(=O)c1cc(CNC(=O)c2ccccc2Cl)ccc1OC,i,2,-8,.,-8,3,5,-25
COC(=O)c1c(NC(=O)CN2CCCc3ccccc32)sc(C)c1C,i,2,6,.,19,-7,-6,0
CC1CCN(S(=O)(=O)c2cc([N+](=O)[O-])ccc2Cl)CC1,i,3,3,.,-6,-2,1,-3
O=C(Cn1cnc(S(=O)(=O)N2CCOCC2)c1)Nc1ccc(OC(F)(F)F)cc1,i,8,10,-6,.,1,0,4
COc1cc(NC(=O)C(=O)N2CCN(C)CC2)c(OC)cc1Cl,i,-2,4,.,-1,1,3,1
COc1ccccc1CNC(=O)C(=O)NCC1OCCN1C(=O)c1ccc(Cl)cc1 (stereo not given),i,-4,-3,-19,0,3,1,-10
c1ccc(CNc2nc(NCc3ccco3)nc(N3CCOCC3)n2)cc1,i,0,-14,.,-5,0,6,18
CCN(CC)CCCn1c2c(c(SCC(=O)N3CCCc4ccccc43)nc1=O)CCC2,i,.,.,-19,19,0,3,.
COc1ccccc1NNC(=O)c1cc(C(C)(C)C)nn1Cc1ccccc1,i,-16,5,10,30,-1,2,0
COc1cc(NC(=O)COC(=O)c2ccc3ccccc3n2)cc(OC)c1,.,.,.,-13,.,3,10,-6
O=C(CCc1nnc(CCC2CCCCC2)o1)NCc1ccon1,i,-16,7,.,-13,0,-5,5
CN(C(=O)c1cc2sccc2n1C)C1CCCCC1,i,-6,-1,3,10,-4,-2,-98
O=C(NCCc1ccccc1)C1CCCN1C(=O)Nc1ccccc1 (stereo not given),i,-13,-3,31,4,-1,-1,-12
O=[N+]([O-])c1cc([N+](=O)[O-])c(Oc2cc(Cl)ccc2Cl)cc1NC1CCCCCCC1,i,3,13,-10,27,4,-2,-5
Cc1cc(O)ccc1Nc1nc(-c2sc(N)nc2C)cs1,i,23,30,-24,-8,-11,4,-21
CCOC(=O)C1=CN(Cc2ccco2)S(=O)(=O)N(CC)C1c1ccc(F)c(Cl)c1 (stereo not given),.,.,.,7,.,-1,0,-2
CN(Cc1ccccc1)C(=O)c1csc([C@@H]2O[C@H](CO)[C@@H](O)[C@H]2O)n1,.,.,.,-12,.,2,3,25
O=C(NCc1ccccc1C(F)(F)F)C1CCC(=O)N(C2CCCCCC2)C1 (stereo not given),i,-7,5,9,2,1,-5,3
CC(=O)N1CCN(C(=O)Cn2c(=O)oc3ccccc32)CC1,i,-2,10,-22,-14,8,8,.
CC(=O)Nc1ccc(S(=O)(=O)N2CCC(C(=O)O)(c3ccccc3)CC2)cc1,i,5,-6,-12,-13,1,5,9
CC(CCc1ccccc1)NC(=O)CSc1ccccn1 (stereo not given),i,-2,-1,-3,-5,1,4,17
COC(C(=O)Nc1ccccc1F)c1ccccc1 (stereo not given),i,-6,-10,-38,-5,0,5,.
C/C(=C\C(=O)c1ccccc1)NCc1ccc(F)cc1,i,0,3,-15,10,2,1,.
Cc1cc(NC(=O)COC(=O)C2CC2)ccc1Br,.,.,.,5,.,7,6,0
O=S(=O)(c1ccc(F)cc1)N1CCN(C(=S)NCC2CCCO2)CC1 (stereo not given),i,.,.,-19,-8,0,1,-17
Cc1cc(C)c2c(c1)c(C)cc1nnc(SCC(=O)c3cccs3)n12,i,-13,-6,-25,-4,-6,-4,.
CC(C)C(=O)NNC(=O)CSc1nc(C2CCCCC2)nc2ccccc12,i,0,2,-32,4,0,-5,26
CCc1ccc(C(=O)NNC(=O)CCc2nc3ccccc3c(=O)[nH]2)cc1,i,.,.,-6,-6,-8,2,0
CCOC(=O)C1CCCCN1Cc1cc(Cl)ccc1O (stereo not given),i,-1,4,-2,-3,-5,-4,20
O=C(COC(=O)C1CCC1)Nc1ccc(Cl)cn1,.,.,.,-18,0,0,-1,-26
COCCNC(=O)/C(C#N)=C/c1ccc(C(=O)O)cc1,i,3,20,.,-19,1,3,3
O=C(O)/C(=C1/OC(=O)c2ccccc21)c1ccccc1,i,-6,2,-14,-14,3,6,.
CCOc1ccc(S(=O)(=O)NCc2ccco2)cc1,i,-2,-7,-2,-9,-1,-2,.
COc1ccc(C(=O)Nc2sc(C)c(C)c2CN2CC(C)OC(C)C2)cc1 (stereo not given),i,0,2,.,-18,-4,3,.
C/C(N)=C(\C#N)C(=O)NCc1ccccn1,i,-9,1,-19,1,7,7,-8

# A different layout for seven compounds above.
smiles | Rce1 inhib | eIF4H FP inh | PABP FP inh | UUG fidelity | CSC inhib | MT1-MMP act inh | MT1-MMP act inh RFP | HIV Env fusion
CC(CCc1ccccc1)NC(=O)CSc1ccccn1 (stereo not given) | i | -2 | -1 | -3 | -5 | 1 | 4 | 17
COC(C(=O)Nc1ccccc1F)c1ccccc1 (stereo not given) | i | -6 | -10 | -38 | -5 | 0 | 5 | .
C/C(=C\C(=O)c1ccccc1)NCc1ccc(F)cc1 | i | 0 | 3 | -15 | 10 | 2 | 1 | .
Cc1cc(NC(=O)COC(=O)C2CC2)ccc1Br | . | . | . | 5 | . | 7 | 6 | 0
O=S(=O)(c1ccc(F)cc1)N1CCN(C(=S)NCC2CCCO2)CC1 (stereo not given) | i | . | . | -19 | -8 | 0 | 1 | -17
Cc1cc(C)c2c(c1)c(C)cc1nnc(SCC(=O)c3cccs3)n12 | i | -13 | -6 | -25 | -4 | -6 | -4 | .
CC(C)C(=O)NNC(=O)CSc1nc(C2CCCCC2)nc2ccccc12 | i | 0 | 2 | -32 | 4 | 0 | -5 | 26

# Going on with the list.
SMILES,Rce1 inhib,eIF4H FP inh,PABP FP inh,UUG fidelity,CSC inhib,MT1-MMP act inh,MT1-MMP act inh RFP,HIV Env fusion
CN(C)S(=O)(=O)N1CCC(Oc2ccc(C(=O)N3C[C@H]4CC[C@H]3C4)cc2)CC1,i,-1,-6,-6,10,-1,-21,26
COCCSc1nnc(-c2cccc(C#N)c2)n1C,i,-6,4,-12,2,1,1,-3
C=CCN1CCN(C(=O)c2cc3c(s2)CCC(CC)C3)CC1 (stereo not given),i,-12,-1,0,-1,-1,-3,.
CC(C)C(c1nnnn1Cc1ccc(F)cc1)N1CCN(C(=O)c2ccco2)CC1 (stereo not given),i,4,-2,-5,-6,-3,1,.
O=C(c1cccc(F)c1F)N1CCCC1,i,-2,27,-3,-7,-1,0,.
CCCc1cc(=O)oc2c(C)c(OCC(=O)NCCCN3CCOCC3)ccc12,i,-9,-4,-19,18,0,3,-4
CN1CCN(c2ccccc2NC(=O)c2ccc([N+](=O)[O-])cc2Cl)CC1,i,-7,-1,2,-9,-3,-2,-6
COc1ccc2c(-c3ccccc3)cc(SCC(=O)N(C)C)nc2c1,i,39,-8,.,-1,-6,-4,26
O=C(NCC1CCCO1)c1cn(Cc2ccccc2Cl)nc1-c1ccccc1 (stereo not given),.,.,.,-13,.,1,1,-4
